Bioassay records from PubChem BioAssay.
Sa ugtP lethal: growth inhibition of ugtP-null S. aureus, primary screen, RN4220 ugtP deletion, OD600; 16 h; some inactives read as strong as hits; growth inhibition, % (concentration not given with the values); 330,000 compounds, 0.54% hits; AID 1259309, 2017;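 active = z-score under -3 and OD600 up to 0.15 on both plates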;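 also: plate controls were untreated wells for no effect and antibiotic for full effect; wells of about 80 µL received 100 nL stock; the first replicate is given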
PrP 5UTR inh: inhibition of PrP 5' UTR reporter expression; 340,000 compounds, 0.35% hits; inhibition, % (test concentration not listed); cell-based PrP 5' UTR mRNA reporter, plate reader;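 active = every replicate at 50% or more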;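 also: 0 = median of the neutral control wells; tested in H4 reporter cells; numbers are from one replicate; inactives centre near -14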
BJeLR viability: MLPCN primary cell-based screen for lethality selective to Ras in HRASV12 cells; BJeLR (HRASV12) viability, CellTiter-Glo ATP luminescence, 48 h; reference of the scale not given here; 300,000 compounds, 0.17% hits; inhibition, % (no concentration beside the values);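 active = replicate mean above 50%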;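 also: 50 nL library stock added to about 25 µL; numbers are from one replicate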
Bead autofluor: counter-screen for toxin protease inhibitors: compound fluorescence; fluorescence intensity (no concentration beside the values); compound autofluorescence counterscreen, microsphere flow cytometry; stronger effect = higher value; 360,000 compounds, 3.1% hits;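 active = at least 3 SD above the mean of all compounds, about 16000 in these data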;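 also: 100 nL of 1 mM stock went into each well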
RN4220 kill: growth inhibition of S. aureus RN4220, primary screen, OD600 | 330,000 compounds, 0.33% hits | 16 h | inhibition, % (test concentration not listed);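 active = z-score of -3 or lower and OD600 up to 0.18 on both plates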;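 also: plate controls were untreated cells for no effect and reference antibiotic for full effect; stock transfer was 100 nL into about 80 µL; one replicate is shown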
Mtb hypoxia rep: PubChem AID 1159583; 300,000 compounds, 0.1% hits; fluorescence inhibition, % (test concentration not listed); M. tuberculosis hypoxia-regulated fluorescent reporter, fluorescence;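 active = 35 to 45% if threefold the growth effect, above 45% if 1.5-fold the growth effect; inactive = the rest, general growth blockers included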;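 also: wells of about 50 µL received 100 nL stock; 0% = vehicle wells and 100% = reference inhibitor wells; whole bacteria with a GFP reporter of the hypoxia response; strong numbers were not always called active; many hits fall short of the cut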
Mtb hypoxia rep growth: recorded beside Mtb hypoxia rep, whose call it bears; growth inhibition, %; measured here: M. tuberculosis growth (absorbance);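 0% = vehicle and 100% = reference antibiotic; read after six days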
Numbers without * were called inactive; nt = no result given.

SMILES	Sa ugtP lethal	PrP 5UTR inh	BJeLR viability	Bead autofluor	RN4220 kill	Mtb hypoxia rep	Mtb hypoxia rep growth
COc1ccccc1C(=O)NCCC(=O)NCC1CCCCC1	12	-27	nt	3522	5.2	13	-2
CCOc1ccccc1NC(=O)COC(=O)C1CCC(=O)N1 (stereo not given)	2	-18	nt	4116	0.9	5	6
CCc1c(C)nc(N2CCOCC2)[nH]c1=O	0	-27	6	10804	0.7	17	0
COc1ccccc1N(C(=O)c1ccco1)C(C(=O)NC1CCCC1)c1ccncc1 (stereo not given)	5	-5	-13	4433	4.6	7	-6
Cc1ccc(-c2ccc(C#N)c(=O)n2CC(=O)N(C)C)cc1	5	-24	-2	3561	0.8	11	10
O=c1c2cc(NC(=S)NC3CC3)ccc2nc2n1CCCCC2	2	-3	6	3145	3.6	4	8
O=C(Nc1ccccc1)N1CCN(CCc2ccccc2)CC1	5	-5	3	4249	0.9	17	0
Cc1ccc(OCC(=O)NN=Cc2ccncc2)cc1	14	nt	nt	nt	17	0	5
OCCc1c[nH]c2ccc(C(F)(F)F)cc12	nt	-12	-10	3856	nt	nt	nt
CCNc1nc(Sc2ccc(C)cc2)cc(C(F)(F)F)n1	72	-30	-9	10368	0.2	7	8

Some of the entries above, set out differently.
molecule | Sa ugtP lethal | PrP 5UTR inh | BJeLR viability | Bead autofluor | RN4220 kill | Mtb hypoxia rep | Mtb hypoxia rep growth
O=C(Nc1ccccc1)N1CCN(CCc2ccccc2)CC1 | 5 | -5 | 3 | 4249 | 0.9 | 17 | 0
COc1ccccc1N(C(=O)c1ccco1)C(C(=O)NC1CCCC1)c1ccncc1 (stereo not given) | 5 | -5 | -13 | 4433 | 4.6 | 7 | -6
CCNc1nc(Sc2ccc(C)cc2)cc(C(F)(F)F)n1 | 72 | -30 | -9 | 10368 | 0.2 | 7 | 8
CCOc1ccccc1NC(=O)COC(=O)C1CCC(=O)N1 (stereo not given) | 2 | -18 | nt | 4116 | 0.9 | 5 | 6
COc1ccccc1C(=O)NCCC(=O)NCC1CCCCC1 | 12 | -27 | nt | 3522 | 5.2 | 13 | -2
O=c1c2cc(NC(=S)NC3CC3)ccc2nc2n1CCCCC2 | 2 | -3 | 6 | 3145 | 3.6 | 4 | 8

The list continues.
SMILES	Sa ugtP lethal	PrP 5UTR inh	BJeLR viability	Bead autofluor	RN4220 kill	Mtb hypoxia rep	Mtb hypoxia rep growth
CN(C)N=Nc1ccc(S(N)(=O)=O)cc1	6	-19	3	2645	3.9	2	-1
Cc1ccc(S(=O)(=O)CCC(=O)OC(C)c2nnc(-c3cccs3)o2)cc1 (stereo not given)	-1	-20	nt	8055	-0.3	4	11
CCc1nnc(NC(=O)c2cc3ccccc3oc2=O)s1	-1	-22	0	4279	1.6	8	9
COc1ccccc1NC(=O)CCCn1c(=S)[nH]c2ccccc2c1=O	4	-1	1	2509	0.3	1	-13
CCCCN(C(=O)CSc1cc(C)c2ccc(OC)cc2n1)c1c(N)n(Cc2ccccc2)c(=O)[nH]c1=O	3	-12	1	2332	-1.6	6	1
Cc1ccc2c(C(=O)CN3CCCC3)c(C)[nH]c2c1	11	-9	-6	3791	4.8	nt	nt
CCC(=O)N1CCN(c2ccccc2NC(=O)c2ccc([N+](=O)[O-])o2)CC1	48	13	4	5988	21	11	11
CCN(CC)C(=O)Cn1cc(C(=O)C(=O)N2CCN(c3ccc(OC)cc3)CC2)c2ccccc21	2	-4	-10	5812	0.2	-7	10
Cc1cc(C(=O)Nc2cccc3c2OC(CN(C)CC2CC2)C(C)CN(C(C)CO)C3=O)n(C)n1 (stereo not given)	-11	nt	nt	nt	4.9	8	5
CC(C)(C)[C@H]1C=C(C(=O)O)O[C@@H](OCc2ccc(CO)cc2)C1	nt	-6	-10	3847	nt	nt	nt
Cc1ccc(CNc2nc3ccc(C)cc3n3cnnc23)cc1	4	-9	0	6265	3.3	7	8
Cc1ccc(S(=O)(=O)Nc2nc(C)c(C(=O)NNS(=O)(=O)c3cc(C)ccc3C)s2)cc1	7	-18	-14	4322	5.1	-2	-2
Cc1c(C(=O)NC(=S)NCc2cccnc2)cccc1[N+](=O)[O-]	2	0	1	6438	3.5	4	7
CCCCCCSc1ccc(C2N[C@@](C)(C(=O)OC)C3C(=O)N(CC)C(=O)C23)cc1 (stereo not given in full)	18	nt	nt	nt	8.9	18	20
CC(=O)Nc1ccc(S(=O)(=O)N2CCN(S(=O)(=O)c3ccc(NC(C)=O)cc3)CC2)cc1	17	-26	2	3611	2.0	6	7
Cc1ccc(C(C)C)c2c1C(c1ccc3c(c1)OCO3)CC(=O)O2 (stereo not given)	13	-19	nt	3716	-1.4	-12	8
Cc1cc(C)n2nc(SCC(=O)N(CCC#N)c3ccc(F)cc3)nc2n1	5	0	nt	2695	4.6	14	-6
CCC1CCCCN1C(=O)CSc1nc(N)cc(N)n1 (stereo not given)	6	-22	6	3221	4.4	16	6
O=C(Nc1ccccc1C(=O)N1CCOCC1)C1CC(=O)N(C2CCCC2)C1 (stereo not given)	9	-29	6	8377	2.6	2	-4
O=C(NNC(=O)c1cccnc1)Nc1cccc2ccccc12	0	0	-8	4543	2.1	-4	13
CC(=O)c1cc2c(cc1NS(=O)(=O)c1cccc(C(=O)O)c1)OCO2	-5	-6	10	2912	-3.8	-8	-9
COc1ccc(C(=O)Nc2ccccc2C(=O)Nc2ccccc2C(=O)O)cc1	nt	-18	4	4067	nt	nt	nt
Nc1nc(C(c2ccccc2)c2ccccc2)cs1	9	-18	2	5565	-3.3	-1	14
CCCCCN1CC(=O)N2Cc3[nH]c4ccccc4c3C[C@H]2C1=O	13	-4	2	3591	0.1	2	4
CON=Cc1cccn1-c1nccc(N(C)C)c1C#N	-4	nt	nt	nt	2.8	1	-1
Cc1ccc(C)c(NC(=O)CSc2nccn2Cc2ccco2)c1	3	-21	-2	4684	1.3	12	9
CCOc1cc(NC(=S)NCC2CCCO2)c(OCC)cc1NC(=O)c1ccccc1C (stereo not given)	-2	0	-5	9208	6.3	3	21
NC(=O)C1CC2(CC(c3cccc(NC(=O)COc4ccc(Cl)cc4)c3)=NO2)CN1C(=O)c1ccc(Cl)cc1 (stereo not given)	2	nt	nt	nt	4.6	-3	5

Quoted at random: three records from the list
SMILES	Sa ugtP lethal	PrP 5UTR inh	BJeLR viability	Bead autofluor	RN4220 kill	Mtb hypoxia rep	Mtb hypoxia rep growth
CC(=O)c1cc2c(cc1NS(=O)(=O)c1cccc(C(=O)O)c1)OCO2	-5	-6	10	2912	-3.8	-8	-9
Cc1ccc(C)c(NC(=O)CSc2nccn2Cc2ccco2)c1	3	-21	-2	4684	1.3	12	9
NC(=O)C1CC2(CC(c3cccc(NC(=O)COc4ccc(Cl)cc4)c3)=NO2)CN1C(=O)c1ccc(Cl)cc1 (stereo not given)	2	nt	nt	nt	4.6	-3	5

Not a hit list; 4% or so of the library scored in one or more.
